# Screening data deposited in PubChem BioAssay by Broad Institute.
# ID4 SMM: binders of human ID4 protein. 1.2% of 31,000 active. calls only. P47928. small molecule microarray, Flag-ID4 binding, fluorescence F/B;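 active = spot signal over background at p below 0.07 in all four prints; compounds were printed on slides so no solution concentration is given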;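 note: a binder raises fluorescence above local background on the spot; about 2 pmol printed per array spot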
# Target sequence (P47928 whole entry, looked up): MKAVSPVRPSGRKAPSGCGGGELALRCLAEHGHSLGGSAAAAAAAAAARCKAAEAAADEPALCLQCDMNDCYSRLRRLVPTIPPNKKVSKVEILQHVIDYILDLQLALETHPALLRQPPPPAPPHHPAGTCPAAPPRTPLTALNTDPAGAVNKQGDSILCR
# Calls only; i = inactive; + = active, no number. An excerpt. The share of hits here may be higher or lower than overall.
SMILES,ID4 SMM
Cc1c(NC(=O)CN(c2cccc(F)c2)S(C)(=O)=O)c(=O)n(-c2ccccc2)n1C,i
COc1ccc(Cl)cc1NC(=O)CSc1nnc(-c2ccccc2)n1C,i
CC(=O)O[C@@]1(C)[C@@H]2CC(=C(C)C)C(=O)C[C@@]2(C)CC[C@H]1OC(=O)C1(C)OC1C (some centres undefined),i
CC(C)[C@@H](C)NC(=O)N(C)C[C@@H]1OCc2ccccc2-c2ccccc2C(=O)N([C@H](C)CO)C[C@H]1C,i
O=C(C[C@@H]1CC[C@@H](NC(=O)c2ccc(F)cc2)[C@@H](CO)O1)NCCc1ccccc1,i
O=C(N[C@@H]1CC[C@@H](CC(=O)N2CCN(c3ccccc3)CC2)O[C@H]1CO)c1ccncc1,i
O=C(NCC[C@@H]1CC[C@H](NC(=O)C2CCCCC2)[C@@H](CO)O1)c1ccc(F)cc1,i
C/C=C/c1cnc2c(c1)C(=O)N([C@H](C)CO)C[C@@H](C)[C@@H](CN(C)C(=O)C1CC1)O2,i
Cc1nnc(SCC(=O)Nc2ccc(I)cc2C(C)C)s1,i
C[C@@H]1CN([C@@H](C)CO)C(=O)c2cc(-c3ccc(F)cc3)cnc2O[C@H]1CN(C)CC1CCCC1,i
COc1cc(OC)cc(C2C(C#N)=C(N)Oc3n[nH]c(-c4cccnc4)c32)c1 (centres undefined),i
Cc1ccc(-c2ccc3c(c2)O[C@@H](CN(C)C(=O)CC2CC2)[C@@H](C)CN([C@H](C)CO)S3(=O)=O)cc1,i
C[C@@H]1CN([C@@H](C)CO)C(=O)c2cc(-c3ccc(C(=O)N(C)C)cc3)cnc2O[C@@H]1CN(C)C,i
O=C(C[C@@H]1CC[C@H](NC(=O)C2CCC2)[C@@H](CO)O1)NCC1CC1,i
CC(Oc1ccc(Cl)cc1Cl)/C(N)=N/O (centres undefined),i
COc1ccc(C(=O)NC(CC(=O)O)c2ccc(Cl)cc2)cc1 (centres undefined),i
O=C(CSc1nc(Nc2ccccc2)nc(N2CCOCC2)n1)N1CCc2ccccc21,i
O=C(N[C@@H]1CC[C@@H](CC(=O)N2CCc3ccccc3C2)O[C@H]1CO)C1CCC1,i
Cc1cc(Cl)c(S(=O)(=O)N2CCc3ccccc32)cc1OCC(N)=O,i
CC(=O)N(C)C[C@@H]1OCc2ccccc2-c2ccccc2C(=O)N([C@H](C)CO)C[C@H]1C,i
COC(=O)c1ccc(NC(=O)CSc2n[nH]c(-c3ccncc3)n2)cc1,i
COc1ccc(-c2nn(C)c(=O)c3ccccc23)cc1CNC(=O)CN1CCOCC1,i
COc1ccc(OC)c(C(C)NC(=O)Nc2cccc([N+](=O)[O-])c2)c1 (centres undefined),i
CCOC(=O)c1cc(C(=O)OC)c(C)nc1N1CCCN(Cc2ccc(F)cc2)CC1,i
CCOc1nc(NCCO)nc(Nc2ccc(OC)cc2OC)n1,i
C[C@H]1CN([C@@H](C)CO)S(=O)(=O)c2ccc(C3=CCCCC3)cc2O[C@H]1CN(C)S(=O)(=O)c1cn(C)cn1,i
Cc1cc2nc(-c3ccc(NC(=O)COc4ccc([N+](=O)[O-])cc4)cc3)oc2cc1C,i
CCCN(C)C[C@@H]1Oc2cc(C#Cc3ccc(F)cc3)ccc2S(=O)(=O)N([C@H](C)CO)C[C@H]1C,i
O=C(O)C1CCCCC1C(=O)Nc1cccc2ccccc12 (centres undefined),i
COCC(=O)Nc1ccc2c(c1)[C@H]1C[C@H](CC(=O)NCc3cccnc3)O[C@H](CO)[C@H]1O2,i
CNC[C@H]1Oc2cc(-c3cccc(C(=O)N(C)C)c3)ccc2S(=O)(=O)N([C@H](C)CO)C[C@@H]1C,i
CCCN(C)C[C@@H]1Oc2ncc(Br)cc2C(=O)N([C@@H](C)CO)C[C@H]1C,i
COC(=O)c1ccc(NC(=O)CN(C)S(=O)(=O)c2ccc3ccccc3c2)cc1,i
C[C@@H]1CN([C@H](C)CO)S(=O)(=O)c2ccc(/C=C/c3ccccc3)cc2O[C@H]1CN(C)C,i
O=C(NCc1ccccn1)C1CC(c2cccc(Br)c2)=NO1 (centres undefined),i
Cc1cc(C)n2c(Nc3cccc(C(F)(F)F)c3)c(-c3ccc(O)cc3)nc2n1,i
CCOC(=O)c1ccccc1NC(=O)CSc1nc2ccccc2[nH]1,i
CC(C)Nc1nc(Oc2ccc(=O)[nH]n2)nc(N(C)C)n1,i
Cn1c(SCC(=O)c2ccc(F)cc2)nnc1-c1cccc([N+](=O)[O-])c1,i
COc1ccc(NC(=O)CSc2nnc(N)s2)c(OC)c1,i

# 15 compounds out of the list, sorted by count of non-hydrogen atoms, highest first:
SMILES,ID4 SMM
CC(C)[C@@H](C)NC(=O)N(C)C[C@@H]1OCc2ccccc2-c2ccccc2C(=O)N([C@H](C)CO)C[C@H]1C,i
Cc1ccc(-c2ccc3c(c2)O[C@@H](CN(C)C(=O)CC2CC2)[C@@H](C)CN([C@H](C)CO)S3(=O)=O)cc1,i
CCCN(C)C[C@@H]1Oc2cc(C#Cc3ccc(F)cc3)ccc2S(=O)(=O)N([C@H](C)CO)C[C@H]1C,i
C[C@@H]1CN([C@@H](C)CO)C(=O)c2cc(-c3ccc(C(=O)N(C)C)cc3)cnc2O[C@@H]1CN(C)C,i
O=C(N[C@@H]1CC[C@@H](CC(=O)N2CCN(c3ccccc3)CC2)O[C@H]1CO)c1ccncc1,i
CC(=O)N(C)C[C@@H]1OCc2ccccc2-c2ccccc2C(=O)N([C@H](C)CO)C[C@H]1C,i
Cc1c(NC(=O)CN(c2cccc(F)c2)S(C)(=O)=O)c(=O)n(-c2ccccc2)n1C,i
Cc1cc(C)n2c(Nc3cccc(C(F)(F)F)c3)c(-c3ccc(O)cc3)nc2n1,i
CC(=O)O[C@@]1(C)[C@@H]2CC(=C(C)C)C(=O)C[C@@]2(C)CC[C@H]1OC(=O)C1(C)OC1C (some centres undefined),i
COc1ccc(Cl)cc1NC(=O)CSc1nnc(-c2ccccc2)n1C,i
COc1ccc(OC)c(C(C)NC(=O)Nc2cccc([N+](=O)[O-])c2)c1 (centres undefined),i
CCOc1nc(NCCO)nc(Nc2ccc(OC)cc2OC)n1,i
O=C(C[C@@H]1CC[C@H](NC(=O)C2CCC2)[C@@H](CO)O1)NCC1CC1,i
O=C(O)C1CCCCC1C(=O)Nc1cccc2ccccc12 (centres undefined),i
CC(C)Nc1nc(Oc2ccc(=O)[nH]n2)nc(N(C)C)n1,i

# (next part)
SMILES,ID4 SMM
CN(C)C(=O)Oc1nnc(SCC(=O)c2ccc3c(c2)OCCO3)n1C1Cc2ccccc2C1,i
C[C@@H]1CN([C@@H](C)CO)S(=O)(=O)c2ccc(-c3cncnc3)cc2O[C@H]1CN(C)C(=O)c1cccc(F)c1,i
COCC(=O)N[C@H]1C=C[C@H](CC(=O)N2CCCCC2)O[C@H]1CO,i
CNC[C@H]1Oc2cc(C#Cc3cccc(F)c3)ccc2S(=O)(=O)N([C@@H](C)CO)C[C@@H]1C,i
O=C(CSc1ccccc1C(=O)O)Nc1ccnc2ccccc12,i
O=C(O)CCC(=O)Nc1ccc2c(c1)C(=O)NC2=O,i
C[C@H]1CN([C@@H](C)CO)C(=O)c2cc(C#Cc3ccncc3)cnc2O[C@@H]1CN(C)CC1CCOCC1,i
CCOC(=O)Cn1c(=O)c2cnc3c(c(C)nn3C)c2n1C,i
CCCc1cn(CC[C@@H]2CC[C@H](NC(=O)C3CC3)[C@H](CO)O2)nn1,i
Cc1cc(C)c(C)c(Oc2coc3cc(OCC(=O)Nc4ccccc4Cl)ccc3c2=O)c1,i
COc1cc2c(cc1NC(=O)COc1cccc(C)c1C)oc1ccccc12,i
COC(=O)c1cc(NC(=O)CN(c2cc(Cl)c(Cl)cc2Cl)S(C)(=O)=O)ccc1Cl,i
Cc1cccc(Nc2nc(N)nc(CSc3nccn3C)n2)c1,i
COC(=O)[C@@]1(CCS(=O)(=O)c2ccccc2)COC(c2ccc(OCCCO)cc2)=N1,i
CCCNC(=O)N(C)C[C@H]1Oc2cc(C#Cc3ccccn3)ccc2S(=O)(=O)N([C@H](C)CO)C[C@H]1C,i
C[C@H]1CN([C@@H](C)CO)S(=O)(=O)c2ccc(C#Cc3ccccc3F)cc2O[C@H]1CN(C)C,i
Cc1cc(C)n2nc(SCC(=O)Nc3ccccc3[N+](=O)[O-])nc2n1,i
CCc1cccc(C)c1NC(=O)CSc1nnc(-c2cccnc2)n1C,i
C[C@@H]1CN([C@H](C)CO)S(=O)(=O)c2ccc(C3=CCCC3)cc2O[C@@H]1CN(C)CC1CC1,i
O=C(COc1ccccc1[N+](=O)[O-])Nc1ccc2oc(-c3ccccc3Br)nc2c1,i
Cc1ccc(S(=O)(=O)N(C)c2ccc(C(=O)Nc3cccc(N(C)S(C)(=O)=O)c3)cc2)cc1,i
COc1ccc(NC(=O)CSc2nc3sc(C)c(C)c3c(=O)n2-c2ccccc2)c([N+](=O)[O-])c1,i
NC(=O)C1CCN(C(=O)CSc2nc(-c3ccccc3)cc(=O)[nH]2)CC1,i
CC(C)(C)NC(=O)CSc1nnc(-c2ccco2)n1-c1ccccc1,i
COc1ccc(C)cc1NC(=O)CSc1nnc(-c2ccc(C(C)(C)C)cc2)n1C,i
CSc1nncc(-c2ccc(Cl)cc2)n1,i
CCCC#Cc1ccc2c(c1)O[C@@H](CN(C)S(=O)(=O)c1cccc(OC)c1)[C@H](C)CN([C@H](C)CO)S2(=O)=O,i
Cc1ccc2c(C)c(C(=O)Nc3sc4c(c3C(=O)NCC3CCCO3)CCC4)oc2c1 (centres undefined),i
COc1ccc(S(=O)(=O)N(C)CC(=O)Nc2cccc(C(C)=O)c2)cc1C,i
O=C(O)C[C@@H]1C=C[C@H](NC(=O)Nc2ccccc2)[C@@H](CO)O1,i
CSc1nc(C)cc(OCC(=O)N2CCCCC2)n1,i
O=C(C[C@@H]1C=C[C@@H](NS(=O)(=O)c2ccc(F)cc2)[C@@H](CO)O1)NCc1ccncn1,i
CC(C)CC#Cc1ccc2c(c1)O[C@@H](CN(C)C)[C@@H](C)CN([C@H](C)CO)S2(=O)=O,i
CC(C)C[C@@H]1NC(=O)[C@H]2C[C@@H](C(=O)NCc3ccc(F)cc3)[C@@H](c3ccc(O)cc3)N2C1=O,i
COc1ccccc1S(=O)(=O)N[C@@H]1C=C[C@H](CC(=O)N2CCOCC2)O[C@H]1CO,i
CN(CC(=O)Nc1cccc(F)c1)S(=O)(=O)c1ccccc1,i
O=C1c2ccccc2CN1CCNS(=O)(=O)c1ccc2oc3ccccc3c2c1,i
COc1ccccc1C(=O)Nc1ccc2c(c1)nc(CCNC(C)=O)n2C,i
O=C(C[C@H]1CC[C@@H](NC(=O)C2CCOCC2)[C@H](CO)O1)NCC1CCCCC1,i
Cc1nnc(SCC(=O)Nc2ccc(Br)cc2)n1-c1ccccc1,i
Cc1cc(Br)ccc1OCC(=O)Nc1ccccc1[N+](=O)[O-],i
O=C(NC(=S)c1c(-c2ccccc2)cc2ccccn12)c1ccccc1,i
C[C@H](CO)N1C[C@H](C)[C@@H](CN(C)C(=O)c2ccncc2)Oc2cc(C3=CCCC3)ccc2S1(=O)=O,+
CCCC(O)C#Cc1cnc2c(c1)C(=O)N([C@H](C)CO)C[C@H](C)[C@H](CN(C)Cc1cccc(C)c1)O2 (some centres undefined),i
CCCC#Cc1ccc2c(c1)O[C@@H](CN(C)S(=O)(=O)c1cccc(OC)c1)[C@@H](C)CN([C@@H](C)CO)S2(=O)=O,i
Cc1ccc(N(C(C)C(=O)Nc2ccccc2Br)S(C)(=O)=O)cc1 (centres undefined),i
CC(C)NC(=O)N(C)C[C@@H]1Oc2ccc(N(C)C)cc2C(=O)N([C@@H](C)CO)C[C@H]1C,i
O=C(C[C@@H]1CC[C@@H](NC(=O)c2ccccc2)[C@H](CO)O1)Nc1ccc(-c2ccccc2)cc1,i
CN(C)CCNc1nc2c(c(=O)n(C)c(=O)n2C)n1Cc1ccccc1Cl,i
C[C@@H](O)C#Cc1cnc2c(c1)C(=O)N([C@@H](C)CO)C[C@H](C)[C@H](CN(C)C(=O)Cc1ccccn1)O2,i
CC(=O)c1cccc(NC(=O)CSc2nnnn2C)c1,i
Cn1c(SCC(=O)Nc2cccc(C(F)(F)F)c2)nnc1-c1ccc(F)cc1,i
CCCC#Cc1cnc2c(c1)C(=O)N([C@@H](C)CO)C[C@H](C)[C@H](CN(C)C(=O)c1ccccc1)O2,i
O=C(CSc1nc(-c2ccccc2)c(-c2ccccc2)[nH]1)Nc1ccccc1F,i
Cc1cc(OCc2noc(CSc3ccc(C(F)(F)F)cn3)n2)cc(C)c1Cl,i
COc1cccc(-c2cnc3c(c2)C(=O)N([C@@H](C)CO)C[C@H](C)[C@@H](CN(C)Cc2ccncc2)O3)c1,i
C=C1[C@H]2CC[C@@]3(C)[C@H](c4ccoc4)OC(=O)C[C@]13O[C@H]1C[C@H](O)C(C)(C)[C@H](CC(=O)OC)[C@]12C,i
C[C@@H]1CN([C@@H](C)CO)C(=O)c2cc(-c3cccc(F)c3)cnc2O[C@@H]1CN(C)C(=O)C1CCOCC1,i
COC(=O)[C@@]1(Cc2ccccc2CN=[N+]=[N-])N=C(c2ccc(OCCCO)cc2)O[C@H]1c1ccccc1CN=[N+]=[N-],i
C[C@H]1CN([C@@H](C)CO)C(=O)c2cc(C3=CCCC3)cnc2O[C@H]1CN(C)C(=O)NC1CCCC1,i
# (cont.)
SMILES,ID4 SMM
CCC(=O)N[C@@H]1CC[C@@H](CCn2cc(C3CC3)nn2)O[C@@H]1CO,i
Cc1c(CCC(=O)O)c(=O)oc2cc(OCc3ccc(Cl)c(Cl)c3)ccc12,i
C[C@@H]1CN([C@H](C)CO)C(=O)c2c(c3ccccc3n2C)-c2ccccc2CO[C@@H]1CN(C)S(=O)(=O)Cc1ccccc1,i
O=C(C[C@H]1CC[C@H](NS(=O)(=O)c2ccccc2)[C@@H](CO)O1)NCc1ccncn1,i
CCCN(C)C[C@H]1Oc2ncc(-c3ccccc3)cc2C(=O)N([C@@H](C)CO)C[C@H]1C,i
C[C@H](CO)N1C[C@H](C)[C@H](CN(C)C(=O)Cc2ccccn2)Oc2ncc(-c3ccncc3)cc2C1=O,i
C[C@H]1CN([C@@H](C)CO)C(=O)c2cc(/C=C/c3ccccc3)cnc2O[C@H]1CN(C)C(=O)C1CC1,i
COC(=O)[C@@]1(CCS(=O)(=O)c2ccccc2)N=C(c2ccc(OCCCO)cc2)O[C@H]1c1ccccc1N=[N+]=[N-],i
Cc1ccc(S(=O)(=O)N[C@H]2CC[C@H](CC(=O)NCCc3ccncc3)O[C@@H]2CO)cc1,i
